HSD17B inhib: blocks hydroxysteroid 17-beta dehydrogenase activity. recombinant HSD17B10, NADH fluorescence kinetic; many of its hits are not listed in these tables. 75,000 compounds, 7.6% hits. Q99714. AID 893. Potency, µM (series often up to 57.1 µM), for the others: top-dose activity change, negative = inhibition, hits mostly inhibitors; active = well fitted inhibition curve with a large enough effect; inconclusive = small, poorly fitted or top-dose-only effect; inactive = no such curve, though single readings can be large or run the other way;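 note: the protocol describes HADH2 (HSD17B10) and not the HSD17B4 of the title; nearly all actives have a fitted effect of over 70% in size; most hits overshoot -100% by far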
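Enzyme plus compound, 15 min room temperature; substrate mix added (NAD+ 1 mM, beta-hydroxybutyryl-CoA 90 uM final); plates read kinetically for NADH fluorescence. HADH2 was His-tagged, E. coli-derived, 20 nM.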
An asterisk follows results filed as active; u = inconclusive; [ ] = dose if it differs, or a comment. % is set by controls: 0 for no effect and ±100 for the full control effect; potency is the fitted concentration of half-maximal effect.

SMILES	HSD17B inhib
Cc1cc(C)c(C#N)c(SCC(=O)N2CCCCC2)n1	-7%
O=C(c1cccc(F)c1)N1CCC2(CCCN(c3ncccn3)C2)CC1	-18%
Clc1ccccc1OCCn1ccnc1	u
COCCCN1C(=O)C(=O)/C(=C(/O)c2ccc(OC)cc2)C1c1cccc(OC)c1 (stereo unspecified)	-10%
O=C(c1cccc(F)c1)N1CCC2(CCCN(C(c3ccccc3)c3ccccc3)C2)CC1	-2%
COc1ccc(-c2nnc3sc(-c4ccc(Br)o4)nn23)cc1OC	2%
Cc1ccc(S(=O)(=O)N2CCN(C(=O)CN3CCCC3)C2)cc1	0%
O=C(c1ccc(CS(=O)(=O)c2ccc(Br)cc2)o1)N1CCN(C2CCCCC2)CC1	2%
Cc1ccc(CNC(=O)C2CCCCC2C(=O)O)cc1 (stereo unspecified)	-3%
O=C(c1ccc2c(c1)OCCO2)C1CCN(S(=O)(=O)c2ccc(F)cc2)CC1	2%
C=C(C)c1cccc(C(C)(C)NC(=O)N2CCOCC2)c1	11%
O=C(NCCN1CCCC1)c1ccc2c(c1)N(Cc1ccc(F)cc1)C(=O)c1ccccc1S2=O (stereo unspecified)	-7%
Cc1cccc(NC(=O)CN2C(=O)COc3ccc(Cl)cc32)c1C	9%
COCCCNC(CC(=O)Nc1ccc(OC)cc1OC)C(=O)O (stereo unspecified)	-12%
O=C(O)CCCC[C@@H]1SC[C@H]2NC(=O)N[C@@H]12	5%
Cc1ccccc1NS(=O)(=O)c1ccc(C2CNC(=O)C2)cc1 (stereo unspecified)	-4%
COc1ccc(N(CC(=O)NCc2ccco2)S(=O)(=O)c2ccc(OC)c(OC)c2)cc1	4%
O=c1cc(N2CCN(c3ccccc3)CC2)[nH]c(=O)n1C1CCCCC1	-1%
COC(=O)c1ccc(C(=O)OC)c(NS(C)(=O)=O)c1	99%[activator]
COc1ccc(C)cc1S(=O)(=O)Nc1cccnc1	-9%
OC(CN1C2=NCCN2c2ccccc21)c1ccc2c(c1)OCO2 (stereo unspecified)	-2%
CCSC1=N/C(=C\c2ccc(C(=O)O)cc2)C(=O)S1	-26%
Cc1cc(C)c2c(CC(=O)Nc3nccs3)coc2c1	-4%
Nc1cc(N)nc(SCCOc2ccccc2F)n1	5%
O=C1NC(Cc2c[nH]c3ccccc23)C(=O)N1CCOc1ccccc1 (stereo unspecified)	0%
CCc1nc2ccccc2c(NC(=O)CN2CCC(C)CC2)c1C	-2%
CCc1c(C(=O)Nc2ccc(S(=O)(=O)N3CCOCC3)cc2)csc1C	14%
Cn1c(CN2CCCC2)nc2cc(NC(=O)c3ccco3)ccc21	3%
O=S(=O)(NCCOCC(F)(F)C(F)F)c1ccc2oc3ccccc3c2c1	-7%
Cc1c(NS(=O)(=O)c2ccc3c(c2)CCN3C(=O)C2CC2)c(=O)n(-c2ccccc2)n1C	11%
O=C(Nc1c(C(=O)Nc2ccccc2)cnn1-c1ccccc1)c1ccco1	3%
Cc1ccc(S(=O)(=O)N(C)CC(=O)Nc2cccc(C)n2)cc1	4%
CCCCNc1cc(C)oc(=O)c1C(C)=O	-2%
COc1cccc(C2OC(=O)c3ccccc3N2C(C)=O)c1OC(C)=O (stereo unspecified)	46%[activator]
O=C(O)CCc1ccc(-c2ccccc2)n1CC(=O)O	32µM*
O=C(Nc1cc(C(F)(F)F)ccc1N1CCOCC1)c1ccc(Br)o1	12%
Cc1cc(C)n2nc(SCn3nnc4ccccc4c3=O)nc2n1	4%
O=C(CCN1C(=O)COc2ccccc21)NCc1ccco1	5%
O=C(Nc1ccc2c(c1)OCO2)C1CCCN(c2nc3ccccc3s2)C1 (stereo unspecified)	33%[activator]
CCc1c2c(nc3cccc(SC)c13)COC2	25µM*
CN(C)CCN(C)Cc1ccc2c(c1)Cc1ccccc1-2	4%
Cc1nnc(NC2(C(F)(F)F)C(=O)Nc3c2c(=O)n(C)c(=O)n3C)s1 (stereo unspecified)	-1%
Cn1c(=O)n(C/C=C/c2ccccc2)c(=O)c2c1nc1n2CCCN1c1ccc(F)cc1	-8%
CCOC(=O)c1oc2cccc(O)c2c1CN1CCOCC1	u
C[C@@H](C(=O)NCc1ccccn1)[C@H]1C[C@]1(C)[C@H](NC(=O)OCc1ccccc1)c1ccccc1	0%
c1ccc(Nc2ncnc3ccc(-c4ccoc4)cc23)cc1	-24%
NC(N)=NC[C@@H]1COC2(CCCCC2)O1	0%[25.6 µM]
Cc1ccc(S(=O)(=O)N2CCCC2C(=O)n2nc(C)cc2C)cc1 (stereo unspecified)	10%
COc1ccccc1-c1nccc(NCc2cccs2)n1	16µM*
CCOC(=O)N1CCN(C(=O)c2cnsn2)CC1	4%

Next section.
SMILES	HSD17B inhib
CC(C)c1nc(SCC(=O)Nc2ccc3c(c2)OCCO3)c2c(=O)n(C)c(=O)n(C)c2n1	u
CCOc1cc(-c2noc(CCC(=O)N3CCOCC3)n2)ccc1OC	0%
N#Cc1nc(-c2ccc(OCc3ccccc3)cc2)oc1NCCCN1CCOCC1	25µM*
CCC(C)(C)NC(=O)C(c1ccco1)N(C(=O)c1csnn1)c1cccc(F)c1 (stereo unspecified)	1%
Brc1ccc(-c2noc(COc3ccc4c(c3)CCC4)n2)o1	-12%
N#Cc1cccc(NC(=O)NCCc2c[nH]c3ccccc23)c1	2%
COc1ccc(-n2c(Cc3cccn3C)nnc2SCC(=O)Nc2cccc(F)c2)cc1	-2%
CN(C)c1ccc(C(=S)N2CCOCC2)cc1	-2%
COCCN1C(=O)C(=O)/C(=C(/O)c2cccc(OC)c2)C1c1ccc(C)o1 (stereo unspecified)	-19%
COc1ccccc1Oc1ccccc1C(=O)O	15%
CN(CCCNC(=O)C1CCN(S(=O)(=O)c2cccc3nsnc23)CC1)Cc1ccccc1	1%
Nc1nc(-c2ccccc2)cs1	-3%
CCCCCC1=C2CNC(CCC)(C(=O)OC)C=C2C(C)C1=O (stereo unspecified)	u
Cc1ccc2c(c1)C1CN(C)CCC1N2CC(=O)N(C)c1ccccc1 (stereo unspecified)	4%
O=C(COC(=O)c1cccs1)c1ccccc1	9%
O=S(=O)(O)c1ccc(N=Nc2ccc3c(S(=O)(=O)O)cccc3c2O)c2ccccc12	1%[11.4 µM]
C=CCn1c(Cc2cccs2)nnc1SCC(=O)Nc1ccc(OC)c(OC)c1	-1%
Cc1nnc2sc(-c3cccc(NC(=O)c4ccc(-c5cccc(Cl)c5)o4)c3)nn12	32µM*
COc1ccc(OC)c(NC(=O)CSc2nc(N)c(-c3ccccc3)c(=O)[nH]2)c1	11%
Cc1ccc2[nH]c(=O)c(CN(CC3CCCO3)S(=O)(=O)c3cccc4nsnc34)cc2c1 (stereo unspecified)	-9%
COc1ccc(N2CCN(C(=O)CSc3ccccc3)CC2)cc1	-6%
CCc1nnc(NC(=O)CSc2nc3ccccc3s2)s1	32µM*
CCc1ccc2[nH]c(=O)c(CN(CCCN3CCOCC3)C(=O)Nc3ccccc3)cc2c1	-10%
O=C(c1cccc(Cl)c1)N1CCN(Cc2ccccc2F)CC1	1%
Cc1ccc(S(=O)(=O)N2CCCN(S(=O)(=O)c3ccc(C(F)(F)F)cc3)CC2)cc1	10%
CCC(c1nnnn1CCOC)N1CCN(Cc2ccccc2)CC1 (stereo unspecified)	-1%
COc1cccc(-c2nnc(SCC(=O)OC(C)C)n2N)c1	-2%
Cc1cccc(Nc2nn3c(=O)c4ccccc4nc3s2)c1	25µM*
CC12CC[C@@H]3c4ccc(OP(=O)(O)O)cc4CCC3C1CCC2=O (stereo partly specified)	4%[11.4 µM]
CCCC(=O)N1CC2(C)CN(C(=O)CCC)CC(CCC)(C1)C2=O	1%
Cc1cccc(-n2c(N)c(C(=O)N3CCN(C)CC3)sc2=S)c1	-16%
OC(Cc1ccccc1)(Cc1ccccc1)c1ccccc1	6%[11.4 µM]
Cc1ccnc(NC(=O)COC(=O)C2COc3ccccc3O2)n1 (stereo unspecified)	27%
O=C1[C@H]2[C@H]3[C@H](O)[C@H](O)C/C(=N/OCc4ccccc4)[C@H]3CC[C@@H]2C(=O)N1C1CCCCC1	5%[11.4 µM]
CCC(c1nc2ccccc2c(=O)n1CCCn1ccnc1)N1C(=O)c2ccccc2C1=O (stereo unspecified)	3%
CC(C)(C)C(=O)NC(c1ccc(Cl)cc1)[C@]1(C)C[C@H]1C1CCCCC1 (stereo partly specified)	0%
CCC(=O)N1CCc2cc(S(=O)(=O)CCC(=O)Nc3ccc(F)c(F)c3)ccc21	-8%
O=C1CC(SC(=NCc2ccc3c(c2)OCO3)Nc2ccccc2)C(=O)N1 (stereo unspecified)	-3%
Fc1ccc(-c2cc3nc(-c4ccccc4)cc(N4CCN(CCN5CCOCC5)CC4)n3n2)cc1	32µM*
COc1ccc(CC(C(=O)Nc2cccc(F)c2)c2nn[nH]n2)c(OC)c1 (stereo unspecified)	10%
Cn1c(Cn2c(=O)sc3ccccc32)nnc1SCC(=O)Nc1ccc2c(c1)OCO2	1%
CCN(CC)S(=O)(=O)c1cccc(C(=O)Nc2ccc(C#N)cc2)c1	-2%
O=C(CCNS(=O)(=O)c1ccc2c(c1)CCC(=O)N2)NCc1cccnc1	7%
COc1cccc(C2c3c(oc4ccccc4c3=O)C(=O)N2CCCN(C)C)c1OC (stereo unspecified)	-2%
Cc1cc(-c2nc3ccccc3o2)c2ccccc2n1	16%
Cc1ccc(C(=O)Cn2c(N3CCOCC3)nc3c2c(=O)n(C)c(=O)n3C)cc1	10%
COc1cccc(NC(=O)COc2ccccc2C(N)=O)c1	-14%
CCOC(=O)c1[nH]c2ccc(OC)cc2c1NC(=O)CN1CCC2(CC1)OCCO2	25µM*
COC(=O)C/C=C/C(C)C(OCc1cccc(Br)c1)C(C)C(OC)C1CCCCC1 (stereo unspecified)	10%[11.4 µM]
Cc1ccc(C)c(NC(=O)c2nnn(Cc3ccccc3)c2N)c1	-1%

(list continues)
SMILES	HSD17B inhib
COc1cccc(C2c3c(oc4ccccc4c3=O)C(=O)N2CCCN2CCOCC2)c1OC (stereo unspecified)	-6%
Nc1nnc(CC(=O)N2CCCCC2)s1	6%
CCOC(=O)c1[nH]c(C)c(C(=O)NCc2ccccn2)c1C	8%
CCC1Oc2ccc(C)cc2N(CC(=O)NCCN2C(C)CCCC2C)C1=O (stereo unspecified)	9%
CCCOc1ccc2[nH]cc(C(=O)O)c(=O)c2c1	-11%
COC(=O)c1cc2ccsc2n1Cc1nc(-c2ccc(OC)cc2)oc1C	u
CCN(CC)C(=O)CN(c1cc(Cl)ccc1OC)S(C)(=O)=O	-6%
CCN1CCN(C(=O)c2nn(-c3ccc(C)cc3)c(=O)c3c2c2ccccc2n3C)CC1	2%
Cc1ccnc(NS(=O)(=O)c2cccc3nsnc23)c1	-9%
Cc1ccc2cc(C)c(NCCO)nc2c1	u
CCCCSc1nnc([C@H](C)NC(=O)OC(C)(C)C)o1	4%
COc1cc(NC(=O)CN(c2ccc(C)cc2)S(=O)(=O)c2c(C)nn(C)c2C)cc(OC)c1	-12%
O=C1c2ccccc2C(Nc2ccc(S(=O)(=O)N3CCOCC3)cc2)N1c1cccnc1 (stereo unspecified)	7%
O=S(=O)(c1cccc(Cl)c1Cl)N1CCCCC1	2%
O=C1CS/C(=C\S(=O)(=O)c2ccc(Cl)cc2)N1	-21%
COCc1nc2c([nH]1)c(=O)n(C)c(=O)n2CC(C)C	11%
CCC1=C2CC[C@H]3C(=O)N(CC)C(=O)[C@H]3[C@H]2[C@@]2(C)C(=NCC(=O)OC)OC(=O)N2C1=O	-4%
O=C(/N=C1\NC(=O)C(F)(C(F)(F)F)S1)NC1CCCCC1 (stereo unspecified)	20µM*
CCC1=C2CC[C@H]3C(=O)N(c4ccccc4)C(=O)[C@H]3[C@H]2[C@@]2(Cc3ccccc3)C(=NCc3ccccc3)OC(=O)N2C1=O	2%
CCN(Cc1ccccc1)C(=O)c1ccccc1C	-3%
CCC1(C)Cc2c(sc3nc4n(c(=O)c23)CCCS4)CO1 (stereo unspecified)	32µM*
CSc1nnc2c(n1)OC(c1cn(C)c3ccccc13)N(C(C)=O)c1ccccc1-2 (stereo unspecified)	0%
Cc1ccn(CC(=O)O)c(=O)c1	-2%
Cc1ccc(OCCN2CCN(C(=O)CCC(=O)Nc3nnc(C)s3)CC2)cc1	3%
Cc1cccc(NC(=O)Nc2cc(C)on2)c1	5%
O=C(c1ccc2c(c1)OCO2)N1CCN(c2ccc(F)cc2)CC1	-13%

These rows are one share of the data; rates above refer to the full screens.
